Source: PubChem BioAssay
rRNA inh HTS = selective bacterial rRNA inhibition in E. coli | E. coli WT GFP vs humanized-ribosome RFP mutants, fluorescence, 24 h; stronger effect = lower value; DMSO median 0, no signal -100 | GFP signal change (wild-type ribosome), % (test concentration not listed) | 350,000 compounds, 1.6% hits | AID 720706;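 active means significant combined selectivity score with lowered wild-type GFP, culture density cut under 30%, mutant RFP and density less affected; inactive means any of these conditions unmet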; further: one replicate is shown; some compounds called inactive have numbers as strong as hits
rRNA inh HTS OD600 = further read-out of rRNA inh HTS, marked with its call; OD600 change, %; measured here: OD600 growth;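 optical density of the mix in the first replicate; 0 = DMSO median and -100 = no signal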
rRNA inh HTS RFP = also measured in rRNA inh HTS; calls as there; RFP signal change, %; measured here: RFP humanized mutant strains;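 first replicate; 0 = DMSO median and -100 = no signal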
* marks the source's active call; other numbers are inactive results; & = joins results of further samples.

Below each compound – rRNA inh HTS, rRNA inh HTS OD600, rRNA inh HTS RFP
- CC12CCC3c4ccc(O)c([N+](=O)[O-])c4CCC3C1CCC2=O (stereo unspecified)
    5.8, 6.1, 0.1
- C[C@H]1CN([C@@H](C)CO)C(=O)Cc2cc(NC(=O)Nc3ccc(F)cc3)ccc2O[C@H]1CN(C)Cc1ccc(C(=O)Nc2ccccc2N)cc1
    -55.8, -75.8, -17.9
- O=C(C[C@H]1C[C@H]2c3cc(NS(=O)(=O)c4ccc(F)cc4)ccc3O[C@H]2[C@@H](CO)O1)NCc1cccnc1
    0.5, 0.3, 0.3
- COCC#Cc1cnc2c(c1)C(=O)N([C@@H](C)CO)C[C@@H](C)[C@@H](CN(C)Cc1ccc3c(c1)OCO3)O2
    1.2, 5.6, -1.6
- C[C@@H]1CN([C@@H](C)CO)C(=O)c2cc(NS(=O)(=O)c3ccccc3)ccc2O[C@H]1CN(C)Cc1ccc(Cl)c(Cl)c1
    -7.6, -23.4, 13.2
- O=C(N[C@@H]1CC[C@H](CCn2cc(-c3ccccc3)nn2)O[C@@H]1CO)c1cnccn1
    -2.0, 0.1, -2.1
- COc1ccc(CN(C)C[C@@H]2Oc3ccc(NS(=O)(=O)c4c(C)noc4C)cc3CC(=O)N([C@@H](C)CO)C[C@H]2C)cc1
    -3.5, -8.9, 2.1
- O=C(N[C@@H]1CC[C@@H](CCNS(=O)(=O)c2ccc(Cl)cc2)O[C@@H]1CO)c1ccccn1
    -2.0, -1.1, 0.7
- CC(C)C#Cc1ccc([C@@H]2[C@@H](CO)N3CCCCN(C(=O)c4ccc(F)cc4)C[C@H]23)cc1
    -30.5, -66.2, 5.6
- CNC[C@@H]1Oc2c(NC(=O)Nc3ccc(C(F)(F)F)cc3)cccc2C(=O)N([C@@H](C)CO)C[C@@H]1C
    -5.4, -9.0, 1.7
- CN1CCN(C(=O)C[C@@H]2CC[C@@H]3[C@H](COC[C@H](O)CN3C(=O)Nc3ccc(F)cc3)O2)CC1
    3.1, 10.8, -8.6
- CCN(CC)CCNC(=O)c1ccc(NCN2C(=O)NC(c3ccccc3)(c3ccccc3)C2=O)cc1
    10.0, 14.5, 0.1
- Cc1noc(C)c1S(=O)(=O)N(C)C[C@H]1Oc2ccc(NS(=O)(=O)c3ccc(Cl)cc3)cc2CC(=O)N([C@@H](C)CO)C[C@@H]1C
    -2.1, 4.5, -0.9
- O=C(Cc1cccnc1)N[C@H]1CC[C@H](CCNS(=O)(=O)c2ccccc2Cl)O[C@H]1CO
    1.5, -5.8, 2.1
- COc1ccc(NC(=O)Nc2ccc3c(c2)C(=O)N([C@@H](C)CO)C[C@@H](C)[C@@H](CN(C)Cc2ccc4c(c2)OCO4)OCCCC[C@@H](C)O3)cc1
    3.0, -4.3, 4.7
- C[C@@H](NC(=O)C[C@H]1C=C[C@@H](NC(=O)C2CCOCC2)[C@H](CO)O1)c1ccccc1
    0.7, 2.4, 0.1
- CC(C)C#Cc1ccc2c(c1)O[C@@H](CN(C)C(=O)c1cccnc1)[C@H](C)CN([C@@H](C)CO)S2(=O)=O
    -0.2, -2.9, -1.6
- Cn1nc(C(C)(C)C)cc1C(=O)N1CCCCC1c1cc(C(=O)Nc2cccc3c2CCCC3)no1 (stereo unspecified)
    7.7, 10.9, 3.9
- C[C@H](CO)N1C[C@H](C)[C@@H](CN(C)Cc2ccc(C(F)(F)F)cc2)Oc2ccc(NC(=O)Nc3cccc4ccccc34)cc2CC1=O
    3.5, -0.1, -0.5
- C[C@H]1CN([C@@H](C)CO)C(=O)c2cccc(NS(=O)(=O)c3cn(C)cn3)c2O[C@H]1CN(C)Cc1ccccc1
    3.5, 2.8, -2.6
- CNC[C@@H]1OCCCC[C@H](C)Oc2ccc(NC(=O)Nc3ccc4c(c3)OCO4)cc2C(=O)N([C@H](C)CO)C[C@H]1C
    7.0, -1.5, -1.5
- COc1ccc(S(=O)(=O)N(C)C[C@@H]2OCCCC[C@@H](C)Oc3ccc(NC(=O)NC4CCCCC4)cc3C(=O)N([C@@H](C)CO)C[C@H]2C)cc1
    -0.5, -1.4, 0.9
- CN1C(=O)c2cc(NC(=O)c3ccc(Cl)cc3)ccc2OC[C@H]2O[C@H](CC(=O)O)CC[C@H]21
    1.7, 1.7, -1.3
- CC(=O)Nc1cnc(-c2ccccc2O)cn1
    0.1, 8.3, -6.0
- C[C@@H]1CN([C@H](C)CO)C(=O)c2cc(/C=C/c3ccccc3)cnc2O[C@H]1CN(C)C(=O)C1CC1
    1.2, 6.1, -2.0
- CO[C@H]1CN(C)C(=O)c2cc(NS(C)(=O)=O)ccc2OC[C@@H](C)N(C(=O)C2CCCCC2)C[C@H]1C
    1.7, 0.9, -1.1
- CN(C)CC(=O)Nc1ccc2c(c1)[C@H]1C[C@H](CC(=O)NCc3ccccc3)O[C@H](CO)[C@H]1O2
    0.7, -4.0, -0.8
- C[C@@H]1CN([C@H](C)CO)C(=O)c2cc(Br)cnc2O[C@H]1CN(C)Cc1cccnc1
    6.1&6.0, 9.0&-7.6, -3.5&-0.9
- C[C@H]1CN([C@@H](C)CO)C(=O)c2cc(NC(=O)Cc3cn(C)c4ccccc34)ccc2O[C@H]1CN(C)Cc1ccc(Oc2ccccc2)cc1
    -0.3, 16.1, 1.9
- COC(=O)c1ccc2nc(-c3ccc(C)cc3)c(Cc3cccc(Cl)c3)n2c1
    -3.2, 0.8, 11.3

Ordered by SMILES length (rising): four of the compounds above.
Below each compound – rRNA inh HTS, rRNA inh HTS OD600, rRNA inh HTS RFP
- CC(=O)Nc1cnc(-c2ccccc2O)cn1
    0.1, 8.3, -6.0
- C[C@@H]1CN([C@H](C)CO)C(=O)c2cc(/C=C/c3ccccc3)cnc2O[C@H]1CN(C)C(=O)C1CC1
    1.2, 6.1, -2.0
- CO[C@H]1CN(C)C(=O)c2cc(NS(C)(=O)=O)ccc2OC[C@@H](C)N(C(=O)C2CCCCC2)C[C@H]1C
    1.7, 0.9, -1.1
- C[C@H]1CN([C@@H](C)CO)C(=O)c2cc(NC(=O)Cc3cn(C)c4ccccc34)ccc2O[C@H]1CN(C)Cc1ccc(Oc2ccccc2)cc1
    -0.3, 16.1, 1.9

More records:
Below each compound – rRNA inh HTS, rRNA inh HTS OD600, rRNA inh HTS RFP
- COC(=O)C[C@H]1CC[C@@H](NS(=O)(=O)c2ccc(C)cc2)[C@@H](CO)O1
    6.6, 10.0, 3.5
- C=CCNc1ncnc2c1ncn2[C@H]1CN(Cc2ccc(F)cc2)C[C@@H](CO)O1
    -4.6, -1.9, -3.0
- CC(=O)N[C@@H]1CC[C@@H](CCNC(=O)Nc2ccc(C(F)(F)F)cc2)O[C@@H]1CO
    -62.1, -73.8, -25.2
- CC1(C)CC(=O)C=C(c2ccccc2-c2ccc3c(c2)OCO3)C1=O
    -8.2, 0.1, 4.2
- O=C(NCCO)c1cccc(-c2cnc3cccnn23)c1
    14.7, 10.6, -1.6
- Cc1cccc(C)c1-n1nnnc1C1(C)CCC(=O)N1CCCn1ccnc1 (stereo unspecified)
    18.7, 16.2, 0.8
- Cc1noc(C)c1S(=O)(=O)N(C)C[C@@H]1Oc2ccc(NS(=O)(=O)c3ccc(F)cc3)cc2CC(=O)N([C@@H](C)CO)C[C@@H]1C
    2.4, -0.6, -0.2
- C[C@@H]1CN([C@@H](C)CO)C(=O)c2cc(NC(=O)Cc3cn(C)c4ccccc34)ccc2O[C@@H]1CN(C)S(C)(=O)=O
    2.0, -3.9, 0.0
- O=C(O)c1[nH]c(-c2ccccc2)c2c1C(=O)N(C1CC1)C2=O
    -0.7, 2.1, 2.6
- CC(C)NC(=O)Nc1ccc2c(c1)C(=O)N([C@@H](C)CO)C[C@H](C)[C@H](CN(C)Cc1ccc(C(F)(F)F)cc1)O2
    0.6, 0.1, -3.9
- O=C(Cc1ccccc1)N1CC[C@@H]2[C@H](CO)Nc3ccc(C#Cc4cccc(F)c4)cc3[C@@H]21
    -1.7, -2.3, 2.0
- C[C@@H]1CN([C@@H](C)CO)C(=O)c2cccc(NC(=O)c3ccncc3)c2O[C@H]1CN(C)C(=O)Nc1ccc2c(c1)OCO2
    2.0, 9.7, -1.7
- COc1ccc(-c2ccc3c(c2)[C@H]2[C@H](CCN2S(=O)(=O)c2ccc(OC)cc2)[C@@H](CO)N3C)cc1
    0.3, 2.5, -2.5
- COc1ccc(NC(=O)Nc2ccc3c(c2)CC(=O)N([C@H](C)CO)C[C@@H](C)[C@@H](CN(C)CC2CC2)O3)cc1
    7.0, 3.9, 2.7
- C[C@@H]1CCCCO[C@H](CN(C)Cc2ccc3c(c2)OCO3)[C@H](C)CN([C@@H](C)CO)C(=O)c2cc(NC(=O)Nc3ccc(F)cc3)ccc2O1
    -9.8, -46.0, 37.8
- CCCNC(=O)N1CC2(CCN(C(=O)CC3CC3)CC2)c2c(n(C)c3cc(OC)ccc23)[C@@H]1CO
    -1.0, 2.0, -0.9
- CC(=O)Nc1ccc(C(=O)N2CCCCC2c2cc(C(=O)Nc3ccccc3)no2)cc1 (stereo unspecified)
    7.6, 4.0, -0.5
- CN1C(=O)c2cc(NC(=O)Cc3ccccc3)ccc2OC[C@@H]2O[C@@H](CC(=O)NCC3CC3)CC[C@H]21
    2.0, 3.8, 0.9
- O=C(C[C@@H]1C[C@H]2c3cc(NC(=O)Nc4ccccc4)ccc3O[C@H]2[C@@H](CO)O1)NC1CCCCC1
    -2.7, -0.8, -1.5
- C#CC1(N2CCCCC2)CCCCC1
    16.1, 9.1, 4.6
- N#Cc1cccc(C(=O)C(=O)N2CCC(Cc3ccccc3)CC2)c1
    -12.5, -36.7, -3.0
- Cc1ccc(S(=O)(=O)Nc2ccc3c(c2)C(=O)N([C@@H](C)CO)C[C@H](C)[C@@H](CN(C)S(=O)(=O)c2ccc(C)cc2)O3)cc1
    0.9, 0.5, 1.5
- COc1ccc(CN(C)C[C@@H]2Oc3c(NS(=O)(=O)c4cccs4)cccc3C(=O)N([C@@H](C)CO)C[C@@H]2C)cc1
    -4.1, -9.5, -1.7
- CC(=O)N[C@H]1CC[C@H](CC(=O)NCC2CCCCC2)O[C@@H]1CO
    2.2, 11.2, 0.2
- C[C@H](CO)N1C[C@H](C)[C@H](CN(C)C(=O)CN(C)C)Oc2cc(C#C[C@@H](C)O)ccc2S1(=O)=O
    -1.2, -2.7, -3.3
- CCCC#Cc1ccc([C@@H]2[C@H](CO)N3C(=O)CN(C(=O)Nc4ccccc4)C[C@@H]23)cc1
    2.9, -31.2, 29.0
- COc1ccc(NC(=O)N(C)C[C@@H]2Oc3c(NC(=O)Nc4ccc(F)cc4)cccc3C(=O)N([C@@H](C)CO)C[C@@H]2C)cc1
    2.2, 4.0, 0.8
- CO[C@H]1CN(C)C(=O)c2ccc(NC(=O)c3ccc(F)cc3)cc2OC[C@@H](C)N(C)C[C@H]1C
    -0.9, 2.9, -0.2
- C/C=C/c1ccc([C@H]2[C@@H](CO)N(C(=O)Cc3cccnc3)[C@@H]2CNC(C)=O)cc1
    0.1, -2.8, -1.3
- CN1c2ccc(Br)cc2[C@@H]2[C@@H](CCN2C(=O)Cc2ccccc2)[C@@H]1CO
    -39.0, -61.1, -2.3
- CNC(=O)C[C@H]1CC[C@H]2[C@@H](COc3ccc(NC(=O)Nc4c(C)noc4C)cc3C(=O)N2C)O1
    -1.3, 1.8, -0.3
- CNC(=O)C[C@H]1CC[C@@H]2[C@@H](COc3ccc(NC(=O)c4cc(F)cc(F)c4)cc3C(=O)N2C)O1
    -0.5, 4.6, -0.7
- COc1ccc(C(O)c2nc(-c3cnn(C)c3)cs2)cc1 (stereo unspecified)
    9.1, 5.8, -2.2
- O=C(C[C@@H]1CC[C@H]2[C@@H](COC[C@@H](O)CN2C(=O)C2CC2)O1)NCc1ccncc1
    0.8, 8.0, -5.2
- COc1ccc2c3c([nH]c2c1)[C@@H](CO)N(C)CC31CN(C(=O)c2ccccc2F)C1
    -3.8, -2.4, -2.9
- CCCNC(=O)Nc1ccc2c(c1)C(=O)N(C)C[C@H](OC)[C@@H](C)CN(Cc1cccnc1)[C@@H](C)CO2
    0.9, 2.9, -0.9
- CCCC(=O)Nc1ccc2c(c1)C(=O)N(C)C[C@@H](OC)[C@@H](C)CN(C(=O)c1cnccn1)[C@@H](C)CO2
    -0.2, -3.8, 1.8
- COCC(=O)N(C)C[C@H]1Oc2cc(-c3cccc(F)c3)ccc2S(=O)(=O)N([C@H](C)CO)C[C@@H]1C
    -5.4, 1.4, -2.3
- COc1ccccc1C#CC1=CC(=O)CC(C)(C)C1
    -22.6*, -13.6*, 5.1*
- c1cc(-c2cc3c(o2)CCCC3OCCN2CCOCC2)cs1 (stereo unspecified)
    9.7, 10.4, 4.3
- Cc1ccc(C(=O)Nc2c(-c3ccccc3)[nH][nH]c2=O)cc1
    7.5, 6.7, 5.7
- CO[C@H]1CN(C)C(=O)c2cc(NC(=O)c3cnccn3)ccc2OC[C@H](C)N(C)C[C@H]1C
    0.4, 5.8, -0.9
- Cc1noc(C)c1S(=O)(=O)Nc1ccc2c(c1)C(=O)N([C@@H](C)CO)C[C@H](C)[C@H](CN(C)C(=O)CCC(F)(F)F)OCCCC[C@H](C)O2
    -1.6, -4.1, -1.1
- COc1ccccc1NC(=O)N1CCCCN2[C@@H](CO)[C@@H](c3ccc(C#Cc4ccccc4)cc3)[C@@H]2C1
    -58.0, -64.4, -6.4
- N#C[C@H]1[C@H](c2ccccc2C2=CCCC2)[C@H](CO)N1C(=O)NC1CCCCC1
    -12.5, -59.4, 5.4
- C[C@H](CO)N1C[C@H](C)[C@@H](CN(C)Cc2ccncc2)Oc2ccc(NC(=O)Nc3ccc(F)cc3)cc2C1=O
    2.1, 6.1, -0.5
- COc1ccc2c3c(n(C)c2c1)[C@@H](CO)N(Cc1ccncc1)CC31CN(C(=O)C2CCCC2)C1
    -3.9, -10.8, 4.3
- CCCNC(=O)C[C@H]1CC[C@@H]2[C@H](COC[C@@H](O)CN2CC2CCCCC2)O1
    3.4, -0.6, -1.2
- CC(C)NC(=O)c1ccc2sc([C@H]3C[C@H](O)[C@@H](CO)O3)nc2c1
    9.4, 15.2, 7.1

A portion of the library; the hit share may differ from the screen's.
